Screens (PubChem BioAssay)
Sfp inh – qHTS Assay for Inhibitors of Bacillus subtilis Sfp phosphopantetheinyl transferase (PPTase) | 4'-phosphopantetheinyl transferase ffp (Bacillus subtilis), Q9F4F7 | Biochemical Sfp PPTase activity, qHTS | Potency, µM, inactives show max response, negative = inhibition, actives largely listed as inhibitors | actives 3.5% (n = 310,000); active = well fitted inhibition curve with a large enough effect; inconclusive = small, poorly fitted or top-dose-only effect, or another doubt; inactive = no such curve, though single readings can be large or run the other way;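 also: the enzyme is Sfp with the accession as filed and its product quenches rhodamine fluorescence; potency is read from the fitted curve at half-maximal effect; 0% = enzyme reaction without inhibitor and -100% = no enzyme wells; top concentration of the series not given in the record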
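Sfp 15 nM + cpd, 15 min RT; start w/ rhodamine-CoA 5 uM, BHQ-2-YbbR 12.5 uM (final); 50 mM Hepes pH 7.6, 10 mM MgCl2, 0.01% NP-40, 0.01% BSA; read 525/598 nm at 0 and 30 min.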
Six1-Eya2 inh – qHTS Assay for Inhibitors of the Six1/Eya2 Interaction; Homeobox protein SIX1 (Homo sapiens) + Protein phosphatase EYA2 (Homo sapiens), …; AlphaScreen GST-Six1/His-Eya2 binding, biochemical; stronger effect = lower value; control for the full effect not named in the record; activity change, % (test concentration not listed); actives 0.56% (n = 360,000); in the data active = activity change below about -65%; inconclusive = about -30% to -65%; inactive = above about -30%; also: % is scaled to controls: 0 for no effect and ±100 for the full control effect; compound concentration not given in the record
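Homogeneous AlphaScreen proximity assay pairing GST-Six1 with His-tagged Eya2 (added as 5X mix: 250 nM and 500 nM) in 50 mM Tris pH 8.0, 300 mM NaCl, 1 mM TCEP. Glutathione donor and nickel acceptor beads; 1 h, 37 °C, dark.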
TRPV1 PAM – HTS Assay for Compounds that Act as Potentiators of the Vanilloid Receptor 1. Transient receptor potential cation channel subfamily V member 1 (Homo sapiens), Q8NER1. AID 540277, 2011. TRPV1-expressing cells, Fluo-8 calcium influx, capsaicin EC20 potentiation; host cell line not named in the record; control for the full effect not named in the record. potentiation, % at 8.33 µM. actives 0.02% (n = 320,000); active means potentiation above 80%; inconclusive means 30% to 80%; inactive means below 30%; also: 0% is about no effect
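Cells expressing TRPV1 were dye-loaded with Fluo-8 and read kinetically: 10 s baseline, 3 min after compound (agonist portion), then 2 min after EC20 capsaicin (allosteric enhancer portion). Calcium-bound dye fluorescence at 480/520 nm.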
CtBP-E1A inh – qHTS Assay for Inhibitors of the CtBP/E1A Interaction | activity change, % (concentration not given with the values) | CtBP / adenovirus E1A interaction (AlphaScreen) | AID 651724, 2012 | actives 0.49% (n = 340,000) | AlphaScreen GST-E1A/His-CtBP binding, 1536-well; stronger effect = lower value; control for the full effect not named in the record; in the data active means activity change below about -65%; inconclusive means about -30% to -65%; inactive means above about -30%; also: % is scaled to controls: 0 for no effect and ±100 for the full control effect
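In 5 uL wells, 23 nL compound meets equimolar GST-E1A and His-CtBP (5X stock 125 nM each) for 2 h, 37 °C. Beads (5X, 50 ug/mL) then 1 h, 37 °C, dark.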
D2 potentiator – Beta-Arrestin HTS for Positive Allosteric Modulators of the Human D2 Dopamine Receptor: Potentiators. D(2) dopamine receptor (Homo sapiens), P14416. DiscoveRx D2 beta-arrestin cells, luminescence, 90 min; 100% = 57 uM dopamine signal. potentiation, % (concentration not given with the values). actives 0.23% (n = 360,000). AID 624464, 2012; active = potentiation of 50% or more; inconclusive = 30% to 50%; inactive = 30% or less;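 also: compound concentration not given in the record; tested on top of an EC20 dose of dopamine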
Target sequence (P14416 whole entry, looked up): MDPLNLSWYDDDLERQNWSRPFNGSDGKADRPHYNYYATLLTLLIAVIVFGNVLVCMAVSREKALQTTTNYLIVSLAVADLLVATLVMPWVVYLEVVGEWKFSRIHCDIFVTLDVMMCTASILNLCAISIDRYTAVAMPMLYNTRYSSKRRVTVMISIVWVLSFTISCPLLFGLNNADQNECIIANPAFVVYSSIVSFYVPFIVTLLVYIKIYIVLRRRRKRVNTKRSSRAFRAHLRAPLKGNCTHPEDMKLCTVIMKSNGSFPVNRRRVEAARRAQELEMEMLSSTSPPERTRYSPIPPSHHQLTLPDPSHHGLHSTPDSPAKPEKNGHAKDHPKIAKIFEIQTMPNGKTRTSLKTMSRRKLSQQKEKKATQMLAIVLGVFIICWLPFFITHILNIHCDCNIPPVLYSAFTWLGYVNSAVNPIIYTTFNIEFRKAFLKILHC
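PathHunter D2 cells, attached overnight at 37 deg C, received compound in DMSO plus dopamine at EC20 (50 nM final) for 90 min at 37 deg C. Beta-arrestin recruitment was read as luminescence after 1 h with detection reagent at ambient temperature.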
PINK1 modulator – A Quantitative High throughput Screen to Identify Chemical Modulators of PINK1 Expression. AID 624263, 2012. actives 0.2% (n = 410,000). PINK1 immunofluorescence, high-content cytometry, 24 h. Potency, µM (doses to about 76.6 µM), inactives show at the top dose activation (PINK1 increase), usual class: activators; active = well fitted activation curve with a large enough effect; inconclusive = small, poorly fitted or top-dose-only effect; inactive = flat fitted curve, though single readings scatter; cell line not stated here;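 also: potency is read from the fitted curve at half-maximal effect; % of control where 0% means no effect; nearly all actives have a fitted effect of over 65% in size; a mitochondrial uncoupler was the plate control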
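Cells are seeded, rested 12 hours, then given compound at five concentrations or DMSO for 24 hours. After fixation, blocking and antibody staining, PINK1 amount and mitochondrial localization are scored; CCCP serves as control.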
D2 ag – Beta-Arrestin HTS for Positive Allosteric Modulators of the Human D2 Dopamine Receptor: Agonists; DiscoveRx PathHunter D2 beta-arrestin, luminescence, 90 min; 100% = 57 uM dopamine signal; AID 624465, 2012; actives 0.084% (n = 360,000); activation, % (test concentration not listed); D(2) dopamine receptor (Homo sapiens), P14416; in the data active = activation above about 40%; inconclusive = about 15% to 40%; inactive = below about 15%; also: compound concentration not given in the record; the text of the record calls up to 30% inactive
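DiscoveRx PathHunter D2 beta-arrestin cells (2,100/well) attached overnight, then compound-stimulated 90 min at 37 C in HBSS/10 mM HEPES/0.1% Tween-20 buffer; beta-galactosidase complementation read by luminescence after 1 h at ambient temperature. Dopamine 57 uM final (EC100) as control.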
Starred values were filed as active, the others as inactive; ? = inconclusive; / = not tested or not shown; & = joins results of further samples; [ ] = dose if it differs, or a comment.

Fields: D2 potentiator, TRPV1 PAM, Six1-Eya2 inh, PINK1 modulator, CtBP-E1A inh, D2 ag, Sfp inh
> COc1cccc(C(=O)N2CCN(S(=O)(=O)Cc3ccccc3)CC2)c1
→ 1, 6, -12, 2.0%[38.3 µM], -4, 1.7, 5%
> S=C1Cc2ccccc2C(c2ccc(Cl)cc2)N1 (stereo not drawn)
→ -4, 2, -15, 2.0%, -16, 1.3, 11%
> CC(NC(=O)c1ccccc1Cl)C(=O)Nc1ccc2c(c1)OCO2 (stereo not drawn)
→ -6, -21, -17, 3.3%, 2, -8.3, /
> CC1(C)C(=O)NCCN1C(=O)CC1C(=O)NCCN1Cc1cccc(C(F)(F)F)c1 (stereo not drawn)
→ -32, -21, 1, 0.5%, -7, 6.8, 9%
> CN(C)c1nc(Oc2ccc(=O)[nH]n2)nc(N2CCOCC2)n1
→ 0, -5, 7, 0.6%, -1, -2.9, 5%
> CCC(C)NC(=O)c1c(N)n(/N=C/c2ccccn2)c2nc3ccccc3nc12 (stereo not drawn)
→ -6, -4, -6, -18%[38.3 µM], 2, -2.9, 10µM*
> O=C(Cn1cnc2c(cnn2-c2ccccc2)c1=O)NCc1ccccc1
→ -7, -1, -3, 7.8%, 4, -1.8, -2%
> CCOC(=O)c1[nH]c2cc3c(cc2c1NC(=O)CN1CCCC1)OCO3
→ -14, -6, 1, 0.3%, 12, 0.4, -6%
> CCOC(=O)/C=c1\s/c(=C(\C#N)C(N)=O)n(-c2ccccc2)c1=O
→ -2, 5, 0, 1.0%, -2, -1.1, 5%
> O=[N+]([O-])c1cc(Cl)ccc1Sc1ccccn1
→ -1, 2, -11, 2.3%, -12, 0.3, -8%

Taken from above.
Under PINK1 modulator, S=C1Cc2ccccc2C(c2ccc(Cl)cc2)N1 (stereo not drawn) is listed with 2.0%
Under Six1-Eya2 inh, CC(NC(=O)c1ccccc1Cl)C(=O)Nc1ccc2c(c1)OCO2 (stereo not drawn) is listed with -17
Under Sfp inh, CCOC(=O)c1[nH]c2cc3c(cc2c1NC(=O)CN1CCCC1)OCO3 is listed with -6%

Continuation.
Fields: D2 potentiator, TRPV1 PAM, Six1-Eya2 inh, PINK1 modulator, CtBP-E1A inh, D2 ag, Sfp inh
> O=C(Oc1ccc2c(c1)OCC2=O)c1ccccc1
→ -6, ?, -71*, /, -2, -1.9, -11%
> CCOc1ccccc1/C=C/c1onc(C)c1S(=O)(=O)N1CCC(C(=O)NC)CC1
→ -5, -21, 8, 7.1%, -1, -3.9, -3%
> CCOc1ccc(Br)cc1S(=O)(=O)Nc1ccc(C(=O)Nc2ccc(C)cc2)cc1
→ 16, 10, -1, 10%, 0, -5.8, 11%
> COCCN(Cc1nc(-c2ccc(-c3ccccc3)cc2)oc1C)C(C)C
→ 22, -1, -2, 13%, /, -0.4, -5%
> COc1ccc(S(=O)(=O)N(C)c2ccc(OC(=O)C(C)Oc3ccc(F)cc3)cc2)cc1 (stereo not drawn)
→ -14, -11, -1, -0.6%, 7, -5.1, /
> O=C(CSc1nc2ccccc2[nH]1)NCc1ccc2c(c1)OCO2
→ -23, 3, -8, 0.9%, 10, 1.1, 17%
> CCc1nnc(NC(=O)Cc2cccs2)s1
→ -4, 3, -1, 2.9%, -2, 2.1, 19%
> Cc1ccc(OC2CCN(C(=O)[C@H]3O[C@@H](n4ccc(N)nc4=O)[C@H](O)[C@@H]3O)CC2)cc1
→ -4, /, 5, 5.4%, 4, -1.2, /
> Cc1occc1-c1nnc(SCC(=O)NCc2cccs2)n1CC1CCCO1 (stereo not drawn)
→ -1, 4, 3, -1.3%, 4, 2.6, -16%
> O=C(CSc1nnc(-c2ccncc2)n1Cc1ccco1)Nc1ccccc1F
→ -2, -8, 11, 0.3%, -8, -10, 0%
> Cc1ccn2c(=O)nc(SCc3cccc(C(F)(F)F)c3)nc2c1
→ -6, -8, -2, 7.3%, 2, -1.8, -1%
> NS(=O)(=O)c1ccc(CCNC(=O)c2ccccc2[N+](=O)[O-])cc1
→ -8, -7, 2, 0.4%, 2, -3.2, 13%
> O=C(COC(=O)c1ccc([N+](=O)[O-])cc1)Nc1ccccc1C(=O)NC1CC1
→ -2, /, 7, 10%, 1, 0.4, /
> O=C(NCc1cccnc1)c1c(O)c2cccc3c2n(c1=O)CCC3
→ -3, 4, -1, 2.4%, 21, 2.5, 8%
> Cc1ccc2c(c1)N(CC(=O)N1CCOCC1)C(=O)C(C)O2 (stereo not drawn)
→ -3, 13, 0, 0.6%, -1, 4.2, 19%
> OC1(CN2CCOCC2)C2CN3CCN(C2)CC1(c1ccccc1)C3 (stereo not drawn)
→ 11, 3, 1, -2.3%, 8, -2.4, 5%
> CCOc1cccc(NC(=O)C2CCCN(S(=O)(=O)c3ccc(-n4cnnn4)cc3)C2)c1 (stereo not drawn)
→ -16, 7, 4, 2.8%, -2, -2.8, 14%
> CCCCn1c(N)c(N(CC(C)C)C(=O)CSc2nn(-c3ccc(F)cc3)c(=S)s2)c(=O)[nH]c1=O
→ -5, /, 1, 2.9%, -3, 6.2, /
> CCOc1ccccc1C(=O)N/N=C/c1c[nH]c2ccccc12
→ -5, 19, -5, 0.9%, -8, -1.5, 5%
> Cc1noc(C)c1C(=O)OCC(=O)Nc1cccc(S(N)(=O)=O)c1
→ -6, -1, 1, -0.2%, -12, 1.4, 14%
> O=S(=O)(NC1=NCCCCC1)c1ccc2sc(NS(=O)(=O)c3ccc4ccccc4c3)nc2c1
→ 1, 29, 3, 6.3%, /, -2.0, -23%
> O=C(NN=C1CCCC1)NC1CCCCC1
→ -7, ?, -1, 0.4%, 1, -4.4, -13%
> CCOC(=O)C(N)CSC1CC(=O)N(c2ccc(OCC)cc2)C1=O (stereo not drawn)
→ 0, 0, -1, 1.5%, 2, -0.4, -7%
> CCCCC(=O)NC(c1ccco1)c1c(O)ccc2ccccc12 (stereo not drawn)
→ 6, 7, -10, -1.6%, -1, -1.7, -10%
> COc1ccccc1N(CCOc1ccccc1)S(=O)(=O)c1ccccc1
→ 5, /, 1, -1.2%, 18, 0.2, /
> O=C1CCc2cc(S(=O)(=O)NCc3ccccc3Cl)ccc2N1
→ -7, -6, -1, -1.1%, 7, 0.3, /
> CCCC(O)(CCN1CCCCC1)c1ccc(OCC)cc1 (stereo not drawn)
→ -3, /, 8, 0.6%, 1, -7.3, 20%
> Cc1ccnc(NC(=O)CNC(=O)c2ccc(Br)o2)c1
→ -4, -6, 6, -0.9%, -1, -0.6, /
> CS(=O)(=O)N1CCN(c2ccc(NC(=O)c3cccnc3Cl)cc2)CC1
→ -11, 2, 0, -0.4%[38.3 µM], 11, 0.5, 6%
> COc1ccccc1C(=O)N/C(=C/c1ccc(Br)cc1)C(=O)N1CCCC1
→ -10, -20, -1, -0.9%, 3, -1.5, -11%
> COc1ccc(C(=O)NCCOc2ccccc2Cl)c(OC)c1OC
→ -6, 13, 0, 2.6%, /, 6.1, -3%
> O=C(COC(=O)c1n[nH]c2ccccc12)NC(=O)NC12CC3CC(CC(C3)C1)C2
→ -1, -4, -2, 7.5%, 6, 0.6, 2%
> O=C(CSc1nc(N2CCOCC2)nc(N2CCOCC2)n1)Nc1ccc([N+](=O)[O-])cc1
→ -12, 6, 1, 3.0%, -10, -3.9, 7%
> Cc1ccc(CCNC(=O)CCS(=O)(=O)Cc2ccc(C)cc2)cc1
→ -7, -11, 0, 6.0%, 3, -1.0, 6%
> O=C(Nc1cccc(F)c1)C1CCN(C(=O)NCc2ccccc2)CC1
→ -9, -7, 4, 0.9%, -6, 0.5, 10%
> CNC(=O)c1ccc(NC(=O)CC2SC(N3CCCC3)=NC2=O)cc1 (stereo not drawn)
→ 11, -7, 1, 0.8%, /, 0.6, /
> O=C1C2C3C=CC(C3)C2C(=O)N1c1ccc2c(c1)CCC2 (stereo not drawn)
→ -9, 17, 9, 2.3%, 4, -2.4, 1%
> CN(CC(=O)Nc1ccc(Cl)c(Cl)c1)C(=O)C1CCC1
→ -16, /, -4, 1.3%, 1, -1.3, /
> c1nc(NC2CCCCCC2)c2[nH]cnc2n1
→ -4, 4, 0, 0.9%&-0.4%, 3, -17, 12%
> Cc1ccc(C(=O)NC(N2CCCC2)C(Cl)(Cl)Cl)cc1 (stereo not drawn)
→ 6, -4, -19, -1.8%, -12, -0.2, 11%
> O=C(C(Cc1ccccc1)N1C(=O)c2ccccc2C1=O)N1CCc2ccccc21 (stereo not drawn)
→ -5, 4, 4, 2.0%, 1, -0.3, 25%
> CCc1nnc(NC(=O)c2ccc(S(=O)(=O)N(C)Cc3ccccc3)cc2)o1
→ -5, 0, -18, 0.4%, ?, 2.3, 31%[activator]
> CC(C)c1nnc(NC(=O)C2CCCN2C(=O)Nc2ccccc2F)s1 (stereo not drawn)
→ -6, 6, -7, 0.4%, 8, -2.3, ?
> O=C(COc1ccc(Br)cc1)NCC1COc2ccccc2O1 (stereo not drawn)
→ -24, 10, 12, 0.3%, /, 1.8, /

Sorted by the number under D2 potentiator (high to low): 3 from the list above
| smiles | D2 potentiator | Six1-Eya2 inh | CtBP-E1A inh | D2 ag | Sfp inh |
| --- | --- | --- | --- | --- | --- |
| CCc1nnc(NC(=O)c2ccc(S(=O)(=O)N(C)Cc3ccccc3)cc2)o1 | -5 | -18 | ? | 2.3 | 31%[activator] |
| CC(C)c1nnc(NC(=O)C2CCCN2C(=O)Nc2ccccc2F)s1 (stereo not drawn) | -6 | -7 | 8 | -2.3 | ? |
| O=C(COc1ccc(Br)cc1)NCC1COc2ccccc2O1 (stereo not drawn) | -24 | 12 | / | 1.8 | / |
